# Bioassay records: PubChem BioAssay, several laboratories
# Sa ugtP lethal = compounds lethal to S. aureus RN4220 ugtP deletion mutant; 0.54% of 330,000 active; growth inhibition, % (test concentration not listed); OD600 growth, 16 h; some inactives read as strong as hits;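 active = z-score under -3 and OD600 up to 0.15 on both plates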;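 also: plate controls were untreated wells for no effect and antibiotic for full effect; wells of about 80 µL received 100 nL stock; the first replicate is given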
# PrP 5UTR inh = inhibition of PrP 5' UTR reporter expression; cell-based PrP 5' UTR mRNA reporter, plate reader; inhibition, % (no concentration beside the values); 0.35% of 340,000 active; AID 488862;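 active = every replicate at 50% or more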;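 also: 0 = median of the neutral control wells; tested in H4 reporter cells; numbers are from one replicate; inactives centre near -14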
# RN4220 kill = S. aureus RN4220 growth inhibition; inhibition, % (no concentration beside the values); 0.33% of 330,000 active; AID 1259311; OD600, 16 h;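 active = z-score of -3 or lower and OD600 up to 0.18 on both plates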;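 also: plate controls were untreated cells for no effect and reference antibiotic for full effect; stock transfer was 100 nL into about 80 µL; one replicate is shown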
# BJeLR viability = kills HRASV12-expressing BJeLR cells; BJeLR (HRASV12) viability, CellTiter-Glo ATP luminescence, 48 h; reference of the scale not given here; 0.17% of 300,000 active; AID 1554; inhibition, % (no concentration beside the values);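 active = replicate mean above 50%; inconclusive = above 50% but judged a plate artefact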;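 also: 50 nL library stock added to about 25 µL; numbers are from one replicate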
# Mtb hypoxia inh = reduces hypoxia-regulated biosensor signal in M. tuberculosis; M. tuberculosis hypoxia-regulated fluorescent reporter, fluorescence; fluorescence inhibition, % (concentration not given with the values); 0.1% of 300,000 active; AID 1159583;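 active = 35 to 45% if threefold the growth effect, above 45% if 1.5-fold the growth effect; inactive = the rest, general growth blockers included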;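 also: wells of about 50 µL received 100 nL stock; 0% = vehicle wells and 100% = reference inhibitor wells; whole bacteria with a GFP reporter of the hypoxia response; strong numbers were not always called active; many hits fall short of the cut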
# Autofluor counter = counter-screen for toxin protease inhibitors: compound fluorescence | compound autofluorescence counterscreen, microsphere flow cytometry; hits give high values | fluorescence intensity (no concentration beside the values) | 3.1% of 360,000 active;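 active = at least 3 SD above the mean of all compounds, about 16000 in these data; inconclusive = too few beads counted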;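 also: 100 nL of 1 mM stock went into each well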
# Mtb hypoxia inh growth = second read-out of Mtb hypoxia inh, no call of its own (marks repeat the call); growth inhibition, %; measured here: M. tuberculosis growth (absorbance);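 0% = vehicle and 100% = reference antibiotic; read after six days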
# The depositor's hits bear a star; u = inconclusive; x = no result given. Rows are unselected (roughly 4.1% active in at least one column).
SMILES,Sa ugtP lethal,PrP 5UTR inh,RN4220 kill,BJeLR viability,Mtb hypoxia inh,Mtb hypoxia inh growth,Autofluor counter
Cc1cc(C)cc(N(C(=O)CNC(=O)c2cccs2)C(C(=O)NC2CCCC2)c2cccnc2)c1 (configuration not stated),2.4,-10.9,2.8,-12.9,3.8,18.3,8248
CCN(CC)c1ccc(NC(=O)c2cccnc2)cc1,2.8,-48.8,2.3,-4.7,-5.0,1.7,3052
CC(=O)[C@@]1(O)CCC2C3CCC4=CC(=O)CC[C@]4(C)C3CC[C@@]21C (some centres not stated),4.2,x,7.4,x,7.9,-0.2,x
Cc1ccc(S(=O)(=O)C2(C(=O)N3CCCCC3C)CC2)cc1 (configuration not stated),7.8,-5.9,3.8,x,5.8,-2.0,7964
CCOc1ccc(NC(=O)CC(c2ccccc2)c2ccc(F)cc2)cc1 (configuration not stated),14.9,-6.3,-4.0,1.5,-4.7,-4.9,2160
COc1ccc(S(=O)(=O)N2CCCCCC2)cc1C(=O)NCc1ccco1,8.9,-17.9,5.8,x,5.3,0.6,3071
Cc1cc(F)ccc1S(=O)(=O)Nc1ccccc1C(=O)NCc1cccnc1,2.1,-17.9,8.9,4.5,1.9,7.4,4776
Cc1ccc(OCC(O)CNC2CCCC2)c(C)c1 (configuration not stated),19.7,-22.1,4.9,5.1,6.8,2.0,3740
O=C(Nc1nc2ccccc2s1)c1cccc(S(=O)(=O)N2CCc3ccccc32)c1,2.6,-27.7,-1.0,2.9,-7.2,-4.0,5120
O=C(O)CC1S/C(=N/N=C/C=C/c2ccccc2[N+](=O)[O-])NC1=O (configuration not stated),x,-21.2,x,-17.8,x,x,2234
COc1cc(CN2CCC(C)CC2)ccc1OCc1ccccc1,10.8,-12.3,7.1,2.3,-6.0,11.4,3121
N#Cc1c(Nc2ccccc2)c(/C=N/NCCO)c[nH]c1=O,x,-17.7,x,-0.6,x,x,3695
C=CCNC(=S)NN=Cc1ccccc1OCCOc1ccccc1,7.4,x,4.9,x,-3.2,0.5,x
Cc1cc(Cl)c2oc(C(=O)N(C)CCc3cnn(C)c3)c(C)c2c1,4.9,-27.4,11.4,-1.8,0.7,10.4,5429
CCOC(=O)Cn1c(CN(Cc2ccccc2)Cc2ccccc2)nc2c1c(=O)[nH]c(=O)n2C,-22.9,-38.5,8.3,-6.6,-0.7,6.5,11237

# Full records from above.
# N#Cc1c(Nc2ccccc2)c(/C=N/NCCO)c[nH]c1=O is listed with Sa ugtP lethal: x; PrP 5UTR inh: -17.7; RN4220 kill: x; BJeLR viability: -0.6; Mtb hypoxia inh: x; Mtb hypoxia inh growth: x; Autofluor counter: 3695
# O=C(O)CC1S/C(=N/N=C/C=C/c2ccccc2[N+](=O)[O-])NC1=O (configuration not stated) is listed with Sa ugtP lethal: x; PrP 5UTR inh: -21.2; RN4220 kill: x; BJeLR viability: -17.8; Mtb hypoxia inh: x; Mtb hypoxia inh growth: x; Autofluor counter: 2234

# Further structures
SMILES,Sa ugtP lethal,PrP 5UTR inh,RN4220 kill,BJeLR viability,Mtb hypoxia inh,Mtb hypoxia inh growth,Autofluor counter
Cc1cccc(NC(=O)c2nc[nH]c2C(=O)N2CCC(C)CC2)c1,4.3,-9.0,7.7,x,3.5,13.4,2988
NCCSSCCN,-1.5,-18.8,3.0,-7.4,-12.7,-10.3,5847
CCCCn1c(N)c(N(CC)C(=O)C2CCCC2)c(=O)[nH]c1=O,3.4,-28.5,9.3,x,14.6,5.3,3546
COc1cc(CN2CCCCC2C(=O)Nc2ccc(Oc3ccccc3)nc2)ccc1O (configuration not stated),1.1,-11.1,0.3,-0.1,2.6,6.8,6201
CCOC(=O)c1cc(C(C)(C)C)nc(SC)c1C#N,17.1,-25.0,-2.4,-18.1,-0.3,-4.5,6194
O=C(NCc1ccco1)C(c1ccncc1)N(C(=O)Cc1cccs1)c1ccccc1 (configuration not stated),3.6,-22.9,6.6,3.0,8.0,4.0,4131
Cc1cc(C)nc(SCc2nnc(SCC#N)n2-c2cccc(Cl)c2)n1,6.8,-14.4,8.0,-2.3,11.3,3.8,12145
COc1ccc(/C=C/C(=O)N(Cc2cccs2)C2CCS(=O)(=O)C2)cc1 (configuration not stated),9.1,6.1,7.2,0.8,2.5,6.9,x
CCCCC1(C(=O)OCC)NC(c2ccc(O)cc2)C2C(=O)N(c3ccccc3)C(=O)C21 (configuration not stated),x,-45.7,x,2.9,x,x,4028
COc1cc([N+](=O)[O-])cc(/C=N/NC(=O)C(C)Nc2cccc(C)c2)c1O (configuration not stated),x,-18.1,x,10.6,x,x,1960
O=C(COC(=O)c1ccccn1)Nc1ccccc1OC(F)F,15.7,-10.5,4.1,-9.6,1.4,9.0,4278
O=C(Nc1ccccc1C(=O)O)c1cccc(F)c1,-3.3,20.0,6.5,2.3,x,x,4713
Cc1ccc(C(C)(C)C)cc1S(=O)(=O)Nc1cccc(S(=O)(=O)NC2=NCCC2)c1,3.4,-11.1,10.9,-2.9,8.9,-5.8,1987
O=C(Nc1ccc2nc3n(c(=O)c2c1)CCCCC3)c1cc([N+](=O)[O-])ccc1F,x,-4.5,x,8.0,x,x,5174
CCc1ccccc1N(CC(=O)N1CCN(c2ccc(F)cc2)CC1)S(C)(=O)=O,8.1,-13.9,0.6,-12.5,4.3,3.2,11801
CC(Oc1ccccc1)c1ccnc(N)n1 (configuration not stated),-1.2,-27.5,-0.4,-6.1,-2.5,12.3,4661
C=CCN(c1ccccc1)S(=O)(=O)c1cccc(C(=O)N2CCN(c3ncccn3)CC2)c1,0.2,-5.2,7.0,x,2.5,0.7,8724
COc1ccccc1NC(=O)c1ccc(NC(=O)CN(C)Cc2ccccc2F)cc1,-64.8,-12.3,2.0,-17.3,13.8,6.6,3535
CCN(C(=O)COC(=O)COc1ccc2c(C)cc(=O)oc2c1)C1CCS(=O)(=O)C1 (configuration not stated),16.2,-14.8,3.4,-12.5,6.6,8.1,4446
Cc1occc1C(=O)NN=Cc1ccccc1[N+](=O)[O-],-0.7,x,1.5,x,8.2,10.9,x
Cc1ccc(NC(=O)CN2C(=O)NC3(CCCCC3C)C2=O)cc1S(=O)(=O)N1CCCCC1 (configuration not stated),-16.3,-13.3,-1.5,13.8,5.1,-5.4,u
CC(C)CC(NS(=O)(=O)c1cccc(C(=O)O)c1)C(=O)O (configuration not stated),2.7,-5.8,-0.5,-3.0,0.3,9.9,4252
COc1ccc(N2C(=O)C(Cl)=C(NCc3ccccc3)C2=O)cc1,9.9,-9.4,0.1,0.5,x,x,2197
CC1CCN(C(=S)Nc2ccc(F)cc2)CC1,1.0,-21.2,5.6,-5.7,-0.9,3.8,2693
COc1cc(/C=N/NC(=O)C(N)=O)ccc1OC(=O)c1cccs1,x,-11.1,x,0.5,x,x,4408

# Quoted from the listing, 15 compounds:
SMILES,Sa ugtP lethal,PrP 5UTR inh,RN4220 kill,BJeLR viability,Mtb hypoxia inh,Mtb hypoxia inh growth,Autofluor counter
COc1ccc(/C=C/C(=O)N(Cc2cccs2)C2CCS(=O)(=O)C2)cc1 (configuration not stated),9.1,6.1,7.2,0.8,2.5,6.9,x
CCCCC1(C(=O)OCC)NC(c2ccc(O)cc2)C2C(=O)N(c3ccccc3)C(=O)C21 (configuration not stated),x,-45.7,x,2.9,x,x,4028
COc1cc([N+](=O)[O-])cc(/C=N/NC(=O)C(C)Nc2cccc(C)c2)c1O (configuration not stated),x,-18.1,x,10.6,x,x,1960
O=C(COC(=O)c1ccccn1)Nc1ccccc1OC(F)F,15.7,-10.5,4.1,-9.6,1.4,9.0,4278
O=C(Nc1ccccc1C(=O)O)c1cccc(F)c1,-3.3,20.0,6.5,2.3,x,x,4713
Cc1ccc(C(C)(C)C)cc1S(=O)(=O)Nc1cccc(S(=O)(=O)NC2=NCCC2)c1,3.4,-11.1,10.9,-2.9,8.9,-5.8,1987
O=C(Nc1ccc2nc3n(c(=O)c2c1)CCCCC3)c1cc([N+](=O)[O-])ccc1F,x,-4.5,x,8.0,x,x,5174
CCc1ccccc1N(CC(=O)N1CCN(c2ccc(F)cc2)CC1)S(C)(=O)=O,8.1,-13.9,0.6,-12.5,4.3,3.2,11801
CC(Oc1ccccc1)c1ccnc(N)n1 (configuration not stated),-1.2,-27.5,-0.4,-6.1,-2.5,12.3,4661
C=CCN(c1ccccc1)S(=O)(=O)c1cccc(C(=O)N2CCN(c3ncccn3)CC2)c1,0.2,-5.2,7.0,x,2.5,0.7,8724
COc1ccccc1NC(=O)c1ccc(NC(=O)CN(C)Cc2ccccc2F)cc1,-64.8,-12.3,2.0,-17.3,13.8,6.6,3535
CCN(C(=O)COC(=O)COc1ccc2c(C)cc(=O)oc2c1)C1CCS(=O)(=O)C1 (configuration not stated),16.2,-14.8,3.4,-12.5,6.6,8.1,4446
Cc1occc1C(=O)NN=Cc1ccccc1[N+](=O)[O-],-0.7,x,1.5,x,8.2,10.9,x
Cc1ccc(NC(=O)CN2C(=O)NC3(CCCCC3C)C2=O)cc1S(=O)(=O)N1CCCCC1 (configuration not stated),-16.3,-13.3,-1.5,13.8,5.1,-5.4,u
CC(C)CC(NS(=O)(=O)c1cccc(C(=O)O)c1)C(=O)O (configuration not stated),2.7,-5.8,-0.5,-3.0,0.3,9.9,4252
